# miR-21 FLuc: miR-21 reporter, rising signal | HeLa miR-21 FLuc reporter, luciferase, 48 h | Potency, µM (titrated, usually from 38.3 µM), without a hit: at the top dose reporter change, positive = more light | 340,000 tested, under 10 active; active = well fitted rising curve with a large enough effect; inconclusive = small, poorly fitted or top-dose-only effect; inactive = no such curve, though single readings can be large or run the other way;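 note: % of control where 0% means no effect; miR-21 action dims this reporter so a rising signal means less miR-21 action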
#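 HeLa cells stably expressing CMV-driven firefly luciferase with a downstream miR-21 binding sequence, endogenously expressing miR-21, were treated with titrations (up to about 40uM final) for 48 hours at 37 degree Celsius. Luciferase luminescence was read after lysis.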
# Rango dissoc inh: prevents RanGTP from dissociating the Rango-importin beta complex | O95149+P62826 | Biochemical FRET Rango-importin beta, RanGTP-induced dissociation | actives 0.071% (n = 340,000) | Potency, µM (series often up to 46.1 µM), inactives show top-dose activity change, negative = inhibition; active means falling FRET ratio curve, often poorly fitted, with flat reads before Ran was added; inconclusive means other falling curves, or compound fluorescence or quenching; inactive means flat or rising ratio curve;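 note: potency is the fitted concentration of half-maximal effect; % of control where 0% means no effect; nearly all actives have a fitted effect of over 45% in size; -100% = wells without RanGTP and RCC1; the record marks most hits as doubtful in a second field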
#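 FRET read at 45 min, room temperature: inhibitors block the CFP/YFP signal rise when RanGTP (0.6 uM Ran, 2 mM GTP, 0.2 uM RCC1) frees Rango (0.1 uM) from importin beta (0.25 uM). Pre-read after 5 min compound exposure flags interference.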
# GLA inh pH 4.5: inhibitors of human alpha-galactosidase A at pH 4.5 | P06280 | purified enzyme, 4-MU-alpha-Gal fluorescence, pH 4.5 | activity change, negative = inhibition, % at 105 µM | 230,000 tested, under 10 active; inconclusive = small, poorly fitted or top-dose-only inhibition, or a rising curve; inactive = flat fitted curve, though single readings scatter; no compound was filed as active;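 note: 0% = full activity with enzyme and -100% = basal without enzyme; dose as in the result columns while the protocol names 77 µM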
# Rango complex inh: Rango-importin beta binding inhibition; actives 0.031% (n = 340,000); Potency, µM (series often up to 92.2 µM), without a hit: top-dose inhibition of complex formation; Q14974; Rango CFP/YFP FRET sensor + importin beta, 45 min; active = rising FRET ratio curve, often small or poorly fitted; inconclusive = mostly compound fluorescence or quenching in the first reads; inactive = flat curves in all reads;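 note: potency is the fitted concentration of half-maximal effect; 0% = DMSO wells and 100% = buffer wells lacking importin beta; nearly all actives have a fitted effect of over 15% in size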
# Target sequence (Q14974 whole entry, looked up): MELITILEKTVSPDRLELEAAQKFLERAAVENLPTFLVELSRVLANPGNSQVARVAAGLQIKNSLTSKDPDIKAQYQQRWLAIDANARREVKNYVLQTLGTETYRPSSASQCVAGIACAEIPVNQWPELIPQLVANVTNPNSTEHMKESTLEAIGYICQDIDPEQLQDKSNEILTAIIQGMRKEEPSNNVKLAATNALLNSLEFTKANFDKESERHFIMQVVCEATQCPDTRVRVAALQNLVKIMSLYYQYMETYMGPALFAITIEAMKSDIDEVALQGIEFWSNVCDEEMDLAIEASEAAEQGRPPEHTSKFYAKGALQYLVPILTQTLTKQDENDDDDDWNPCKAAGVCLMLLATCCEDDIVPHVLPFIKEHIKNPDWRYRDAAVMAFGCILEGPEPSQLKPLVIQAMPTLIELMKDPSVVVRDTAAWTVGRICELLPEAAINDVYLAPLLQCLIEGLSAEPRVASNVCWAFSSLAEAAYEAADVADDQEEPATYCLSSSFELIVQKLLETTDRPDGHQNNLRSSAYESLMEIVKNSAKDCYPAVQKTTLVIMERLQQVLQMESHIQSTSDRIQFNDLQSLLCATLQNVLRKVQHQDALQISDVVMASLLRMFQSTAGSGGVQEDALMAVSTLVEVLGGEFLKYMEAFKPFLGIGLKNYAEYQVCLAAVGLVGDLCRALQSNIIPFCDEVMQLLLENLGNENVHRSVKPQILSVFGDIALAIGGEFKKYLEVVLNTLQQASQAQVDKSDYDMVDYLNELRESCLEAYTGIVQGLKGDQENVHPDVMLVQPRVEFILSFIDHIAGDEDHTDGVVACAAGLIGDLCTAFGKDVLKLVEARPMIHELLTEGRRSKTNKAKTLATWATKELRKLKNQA
#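 FRET biosensor (snurportin 1 IBB flanked by EYFP and cerulean), 50 nM, with compound 5 min, then 0.125 microM importin beta in PBS, 1 mM DTT, 0.02% Tween-20, 0.1% BSA. CFP/YFP ratio read after 45 min at room temperature; pre-read flags interference.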
# Numbers without * were called inactive; ? = inconclusive; . = not tested or not shown; & = joins results of further samples.
Rango dissoc inh	GLA inh pH 4.5	miR-21 FLuc	SMILES	Rango complex inh
-13%	.	0%	Cc1cc(C(=O)NC2CCCN(Cc3ccc(Cl)cc3)C2)no1 (stereo not drawn)	3.7%
3%	.	-5%	Cc1ccc(/C=C2/Sc3ccc(C(=O)NCCN4CCOCC4)cc3NC2=O)cc1	6.0%
19%	.	3%	CCOc1ccccc1NS(=O)(=O)c1ccc2c(c1)N(C)CCO2	-0.9%
8%	.	11%	Cc1ccc(N(C)C(=O)c2cc(S(=O)(=O)N3CCc4ccccc43)cn2C)cc1	4.7%
10%	.	-1%	Cc1nc(SCC(=O)NC2CCCC2)c2c(C)c(C)sc2n1	0.6%
-18%	.	-8%	Cc1ccc(SCC(=O)OCC(=O)NC(C)c2ccc(Br)cc2)cc1 (stereo not drawn)	-0.9%
-9%	.	-1%	COc1ccc2nc(CCN(C)C(=O)C3CCC(=O)N(Cc4cccc(F)c4)C3)[nH]c2c1 (stereo not drawn)	1.4%
0%	1	3%	COC(C(=O)NNC(=O)CCc1ccccc1)c1ccccc1 (stereo not drawn)	-1.8%
?	4	0%	COc1ccc(C)cc1NC(=O)Nc1ccccc1SC	5.6%
1%	-17	-15%	CCCOc1ccc(Cn2c(C)nc([N+](=O)[O-])c2SCC(O)COC)cc1[N+](=O)[O-] (stereo not drawn)	0.1%
14%	2	-8%	CCN(CC)S(=O)(=O)c1ccc(NC(=O)c2c(-c3ccccc3)noc2C)cc1	0.9%
2%	.	-4%	COc1ccc(CCNC(=O)C2CC=CCC2C(=O)O)cc1 (stereo not drawn)	0.1%
14%	1	0%	O=C(COC(=O)c1ccc(F)cc1)Nc1ccc(Cl)cn1	-3.5%
-9%	.	.	COc1ccc(N2CCN(S(=O)(=O)c3c[nH]c(=O)[nH]c3=O)CC2)cc1	1.4%
23%	.	0%	CCOc1ccc(-c2c(C(=O)N/N=C/c3sccc3C)nnn2-c2nonc2N)cc1	2.0%
0%	0	-1%	O=C(NCCCN1CCN(CCCNC(=O)c2ccccc2F)CC1)c1ccccc1F	-0.8%
5%	.	.	Nc1cc2c(cc1Br)-c1ccc(F)cc1C2O (stereo not drawn)	-0.7%
-9%	0	-2%	O=C(COc1ccccc1C(=O)NCC1CCCO1)Nc1ccc(Br)cc1 (stereo not drawn)	0.4%
-11%	-6	-4%	COc1ccc(-c2nnn(CC(=O)N(CC(=O)NC3CCCC3)c3cccc(C)c3)n2)cc1OC	-3.5%
16%	.	-1%	COc1ccc(NC2CCCN(C(=O)CCN3CCCC3=O)C2)cc1OC (stereo not drawn)	-3.0%
5%	2	-9%	Cc1ccccc1NC(=O)/C(C#N)=C/c1ccsc1	-0.1%
-15%	3	-4%	Nc1c(C(=O)NCCc2ccccc2)nnn1Cc1ccc(Cl)cc1	3.7%
17%	.	.	CN(C(=O)c1cccc(NC(=O)Cc2ccc(NC(=O)C3CCCN(C(=O)C4CCCC4)C3)cc2)c1)C1CCCCC1 (stereo not drawn)	-0.8%
2%	.	0%	O=C(O)[C@H]1CCCC[C@H]1C(=O)Nc1ccc(S(=O)(=O)N2CCCCC2)cc1	0.7%
0%	.	.	CCCCn1c(N)c(N(CCC(C)C)C(=O)COC(=O)c2cccnc2Cl)c(=O)[nH]c1=O	-0.1%
-19%	.	-1%	Cc1ccccc1S(=O)(=O)Cc1ccc(C(=O)NCCCN(C)Cc2ccccc2)o1	-2.5%
-7%	.	.	Nc1nc(COC(=O)CCC(=O)c2ccc(Cl)cc2)nc(Nc2ccccc2)n1	3.8%
1%	-1	-4%	COc1ccc(CCNC(=O)c2ccccc2N(C)S(=O)(=O)c2ccccc2)cc1	1.4%
9%	-14	1%	Cn1c(SCC(=O)NC(=O)CN2CCCC2=O)nnc1-c1ccc(F)cc1	1.2%
1%	.	.	CCOC(=O)[C@H]1[C@H]2COc3ccc(Br)cc3[C@@H]2N2C(=O)CN(Cc3ccccc3)C(=O)[C@@]12C	-0.2%
-2%	.	.	COc1ccc(C(=O)/C=C2\C(=O)Nc3ccc(Br)cc32)cc1	-0.2%
-5%	.	-4%	Cc1ccc(OCC(=O)Nc2ccc(NC(=O)c3ccccc3)cc2)cc1C	-0.3%
12%	-5	-7%	Cc1ccc2c(c1)COc1c3ccc(C(=O)NCC4CC4)cc3nn1-2	-3.4%
?	-1	0%	CCNc1ccccc(C(=O)/C=C/c2ccc3c(c2)OCO3)c1=O	?
-4%	1	-39%	COC(=O)c1ccc(C2OCC(C)(C)CO2)cc1	1.3%
-6%	.	4%	COc1ccc(CN2CCCC(CO)(Cc3cccc(Cl)c3)C2)cc1OC (stereo not drawn)	-0.4%
15%	3	0%	COc1ccc(NC(=O)C2CC(=O)NC3=C2C(=O)CC(C)(C)C3)cc1 (stereo not drawn)	0.6%
21%	-19	21%	Cc1cc(Br)c(OCC(=O)NN)c2c1CCC2	-2.1%
-6%	0	-2%	Cc1nc(N2CCC(C)CC2)c2c(C)c(C(=O)Nc3ccccc3C(F)(F)F)sc2n1	3.7%
3%	.	.	O=C(C=C(O)c1ccc(Cl)cc1)C(=O)NNC(=O)C(O)(c1ccccc1)c1ccccc1	-0.2%
0%	.	.	CC(NC(=O)c1ccc(C(=O)c2ccccc2)cc1)c1ccc(S(N)(=O)=O)cc1 (stereo not drawn)	1.1%
?	-16	-27%	Cc1sc(NC(=O)c2ccc(Cl)s2)c(C(N)=O)c1C	?
1%	.	.	CCC[C@@H]1CCCO[C@@](C(=O)NCCN2CCOCC2)(C(F)(F)F)C1	-1.4%
6%	.	.	COc1ccc(CNC(=O)COC(=O)[C@H](Cc2ccccc2)NC(=O)c2cccs2)cc1	2.4%
16%	-4	-4%	CC1(C)CC(=O)C(N=Nc2ccc(Cl)cc2)=C(O)C1	-2.9%
?	12	-29%	COc1ccc(NC(=O)N2c3ccc(OC)cc3C(C)=CC2(C)C)cc1	?
16%	-7	-2%	CCc1sc(N)nc1-c1ccccc1	2.6%
-4%	4	-5%	Cc1ccc2oc(=O)c3cc(C(=O)NCCN4CCc5ccccc5C4)sc3c2c1	0.2%
-7%	.	0%	COc1cc(OC)c(C=O)c(OC(=O)N2CCOCC2)c1	-0.5%
-5%	-6	3%	O=C(Nc1nccs1)c1cccc(S(=O)(=O)N2CCOCC2)c1	2.4%
10%	.	.	C[C@H](CO)N1C[C@H](C)[C@@H](CN(C)C(=O)Nc2ccccc2)Oc2c(NC(=O)Nc3ccccc3)cccc2C1=O	0.3%
-1%	-11	2%	CC(=O)OCC1OC(OC(C)=O)C(NC(=O)c2cccnc2)C(OC(C)=O)C1OC(C)=O (stereo not drawn)	-5.6%
-10%	-17	-7%	C/C(=C\c1ccc2c(c1)OCO2)C(=O)c1c(C)cc(C)[nH]c1=O	-3.0%
-11%	-16	9%	COC(=O)C1=C(CSc2nc3ccccc3o2)NC(=O)NC1c1cc(C)ccc1C (stereo not drawn)	-0.4%
4%	-2	-46%	O=C1OC(c2ccc(Br)cc2)=N/C1=C\N1CCCCC1	0.1%
0%	.	.	O=C(N[C@@H](CCC/[N+]([O-])=C/c1ccccc1)C(=O)O)OCc1ccccc1	0.3%

# Remaining list, next part:
Rango dissoc inh	GLA inh pH 4.5	miR-21 FLuc	SMILES	Rango complex inh
-13%	.	1%	COc1cc(C(O)c2nc3ccccc3n2C(C)C)cc(OC)c1OC (stereo not drawn)	-2.9%
0%	5	-31%	COc1ccccc1C(=O)NNC1=C(C(=O)C(F)(F)F)CCC1	0.0%
9%	-10	23%	Oc1c(C(Nc2cccc(C(F)(F)F)c2)c2ccncc2)ccc2cccnc12 (stereo not drawn)	2.3%
-8%	.	-4%	Cc1nc2nc(SCC(=O)NCCCN3CCCCC3)nn2c(C)c1Cc1ccccc1	-1.5%
-11%	0	?	Cc1cccnc1NCc1ccc(O)c2ncccc12	3.5%
-9%	2	-3%	CN(C)CCCN1C(=O)CSC1c1ccc([N+](=O)[O-])cc1 (stereo not drawn)	-0.6%
-3%	.	0%	CCOc1ccccc1NC(=O)NNS(=O)(=O)c1cc(OC)ccc1OC	?
21%	0	-42%	N#Cc1nc(-c2ccccc2F)oc1NC1CCCCC1	-1.7%

# 5 records picked at random from those above, as already listed:
Rango dissoc inh	GLA inh pH 4.5	miR-21 FLuc	SMILES	Rango complex inh
-11%	0	?	Cc1cccnc1NCc1ccc(O)c2ncccc12	3.5%
9%	-10	23%	Oc1c(C(Nc2cccc(C(F)(F)F)c2)c2ccncc2)ccc2cccnc12 (stereo not drawn)	2.3%
-8%	.	-4%	Cc1nc2nc(SCC(=O)NCCCN3CCCCC3)nn2c(C)c1Cc1ccccc1	-1.5%
-3%	.	0%	CCOc1ccccc1NC(=O)NNS(=O)(=O)c1cc(OC)ccc1OC	?
-9%	2	-3%	CN(C)CCCN1C(=O)CSC1c1ccc([N+](=O)[O-])cc1 (stereo not drawn)	-0.6%

# The list continues:
Rango dissoc inh	GLA inh pH 4.5	miR-21 FLuc	SMILES	Rango complex inh
2%	-7	-1%	O=C(NNC(=O)c1ccccc1[N+](=O)[O-])c1ccccn1	4.6%
-12%	.	.	Cc1cccc(C(=O)NCc2nnc(SCC(=O)N3CCN(c4ccccc4)CC3)n2C)c1	1.4%
-9%	.	.	CN(CC(=O)Nc1ccccc1C(F)(F)F)C(=O)C1CCN(C(=O)c2ccc(Cl)cc2)CC1	-1.1%
1%	-1	0%	CCOC(=O)CSc1nnc2n1C(C)(C)Cc1ccccc1-2	1.3%
2%	-1	6%	O=C(O)Cc1ccc(NC(=O)c2ccc(NC(=O)c3ccco3)cc2)cc1	0.6%
-9%	.	.	Nc1c(C(=O)CSc2n[nH]c(-c3ccccc3)n2)c(=O)[nH]c(=O)n1C1CC1	-1.4%
5%	3	0%	CCCCN1C(=O)c2ccccc2C1C(=O)NC1CCCC1 (stereo not drawn)	-4.1%
33%	1	0%	Cc1ccc(C)c(NC(=O)CSc2nc3c(c(=O)n2C)SC(C)C3)c1 (stereo not drawn)	-0.7%
4%	-15	-43%	O=C(Nc1nnc(C2CC2)s1)C1COc2ccccc2O1 (stereo not drawn)	?
-13%	4	-12%	COC(=O)c1cccc(NC(=O)Cc2ccc(OC)cc2)c1C	-5.0%
-11%	-2	0%	CC(=O)Nc1cccc(NC(=O)CS(=O)(=O)c2cn(CC(=O)N3CCOCC3)c3ccccc23)c1	-0.1%
5%	-4	-7%	CCCCc1c(O)nc(SCC(=O)N2CCCCC2)n(-c2ccccc2C)c1=O	-0.3%
-15%	.	-1%	CCn1ncc(S(=O)(=O)Nc2cccnc2)c1C	0.2%
8%	.	0%	O=S(=O)(Cc1ccc(Cl)cc1)NCc1ccc2c(c1)OCO2	-0.7%
?	.	-35%	COC(=O)c1sc(N2C(=O)C(O)=C(C(=O)c3ccc(C)o3)C2c2ccc(OC)c(OC)c2)nc1C (stereo not drawn)	?
12%	.	-2%	CCOc1ccc(-c2[nH]ncc2-c2ccccc2)c(O)c1	10%
-5%	.	0%	COc1ccc(N2CC(C(=O)NC3CCCCC3)CC2=O)cc1 (stereo not drawn)	12%
10%	-7	0%	CCOC(=O)C(C)Sc1cnccn1 (stereo not drawn)	1.6%
-28%	-5	-58%	CNc1cc([N+](=O)[O-])ccc1N/C=C/C(=O)c1cccs1	-0.3%
1%	4	-64%	Cc1ccc2[nH]c3c(=S)nc[nH]c3c2c1	-2.1%
20%	3	-28%	CC(C)c1ccc(NC(=S)NNC(=O)c2cccnc2)cc1	0.9%
8%	0	-6%	CCOc1ccc(-n2c(N)c(C(=O)NCc3ccco3)sc2=S)cc1	-1.2%
-8%	-1	-15%	CCOC(=S)SCc1cn2ccccc2n1	0.1%
8%	2	-2%	CCOC(=O)C1CCCN(S(=O)(=O)Cc2ccccc2)C1 (stereo not drawn)	-0.7%
2%&2%	-4	-7%	CCCCCC(=O)N1CCN(CCN=CC2=C(O)CC(c3cccs3)CC2=O)CC1 (stereo not drawn)	-2.0%&1.2%
0%	-6	1%	O=C(O)c1cc(Cl)nc2ccccc12	3.4%
3%	11	0%	O=C(CCNC(=O)c1ccco1)Nc1ccccc1N1CCOCC1	0.2%
-14%	2	-21%	CNCc1cc(Br)c(OCC(=O)Nc2ccccc2OC)c(OC)c1	3.0%
-7%	-6	-1%	CCC(=O)Nc1ccc(C(=O)Nc2c[nH]c(=O)[nH]c2=O)cc1	-3.9%

# High-throughput results (PubChem BioAssay)

# Not all compounds are listed; count on the stated rates, not on these rows.
